VACV mCherry inh – vaccinia inhibition (mCherry reporter); Potency, µM (top dose mostly 36.5 µM), inactives show at the highest dose activity change, negative = inhibition, most hits filed as inhibitors; AID 720579; actives 0.63% (n = 310,000); Vaccinia virus mCherry reporter infection, fluorescence; about a quarter of the inactives have no number; active = well fitted inhibition curve with a large enough effect; inconclusive = small, poorly fitted or top-dose-only effect; inactive = no such curve, though single readings can be large or run the other way; tested in A549 cells; also: nearly all actives have a fitted effect of over 35% in size; inactives centre near -10
Vaccinia Venus – vaccinia inhibition (Venus reporter); Vaccinia virus Venus reporter expression, fluorescence; Potency, µM (highest dose often 36.5 µM), for inactives: top-dose activity change, negative = inhibition, actives largely listed as inhibitors; actives 0.46% (n = 330,000); active means well fitted inhibition curve with a large enough effect; inconclusive means small, poorly fitted or top-dose-only effect; inactive means no such curve, though single readings can be large or run the other way; tested in A549 cells; also: nearly all actives have a fitted effect of over 30% in size; inactives centre near -10
Active calls of the source: *; & = joins results of further samples; [ ] = dose if it differs, or a comment. % is scaled to controls: 0 for no effect and ±100 for the full control effect; potency is read from the fitted curve at half-maximal effect.

Screening COc1ccc(CCNC(=O)CSC2=Nc3ccccc3C3=NC(CCC(=O)NCc4ccccc4)C(=O)N23)cc1OC (stereo not given) returned VACV mCherry inh -4.0% and Vaccinia Venus 1.4%.
For CCOC(=O)N1CCN(Cc2cc(Cl)c3cccnc3c2O)CC1 the results were VACV mCherry inh inconclusive and Vaccinia Venus inconclusive.
`Nc1ncnc(Nc2c(F)cccc2F)n1` gave VACV mCherry inh -14.5% and Vaccinia Venus -5.6%.
Screening CCN(CC)C(=N)/C(C#N)=N/Nc1ccc(C)cc1 returned VACV mCherry inh -27.6%[7.34 µM] and Vaccinia Venus -13.1%[7.34 µM].
`CCc1cc2c(cc3c(=O)n(CC(=O)NC4CCCCC4)nc(CC)n32)s1` gave VACV mCherry inh -11.4% and Vaccinia Venus -11.2%.
For Cn1c(=O)c(=O)n(C)c2cc(S(=O)(=O)Nc3ccc(Cl)c(C(F)(F)F)c3)ccc21 the results were VACV mCherry inh -14.0% and Vaccinia Venus -5.8%.
Screening CCN(CC(=O)Nc1c(F)cccc1F)C(=O)CSc1ccccc1 returned VACV mCherry inh -0.3% and Vaccinia Venus 11.7%.
For CC(C(=O)Nc1ccccc1-c1ccccc1)N(C)Cc1nc2ccccc2c(=O)[nH]1 (stereo not given) the results were VACV mCherry inh -13.1% and Vaccinia Venus -24.2%.
`Clc1ccccc1CN1CCN(c2ccccc2Cl)CC1` gave VACV mCherry inh -1.7% and Vaccinia Venus -6.3%.
Cc1ccc(F)c(NC(=O)CCc2ccccc2)c1 was read as VACV mCherry inh -13.2% and Vaccinia Venus inconclusive.
Screening COc1cc(CNc2nc3c(C)cc(C)cc3s2)ccc1O returned VACV mCherry inh -27.4% and Vaccinia Venus -15.4%.
COc1ccc(-n2c(C)cc(/C=N/Nc3nnc(C)n3N)c2C)cc1 was read as VACV mCherry inh 11.2µM* and Vaccinia Venus inconclusive.
Screening O=C(NCCCN1CCN(CCCNC(=O)c2cc([N+](=O)[O-])ccc2Cl)CC1)c1cc([N+](=O)[O-])ccc1Cl returned VACV mCherry inh -13.1% and Vaccinia Venus -8.8%.
Screening CCOc1ccc(N(CC(=O)NCCSCc2ccco2)S(=O)(=O)c2ccc(F)cc2)cc1 returned VACV mCherry inh inconclusive and Vaccinia Venus -23.1%.
Cc1nc(SCC(=O)N2CCCC2=O)nc(C)c1C was read as VACV mCherry inh inactive and Vaccinia Venus -6.6%.
Screening NC(=S)N/N=C/c1cn(CCC(=O)O)nc1-c1cccc(Br)c1 returned VACV mCherry inh inactive and Vaccinia Venus -6.7%.
Screening CC1(C)Cc2c(sc(NC(=O)c3ccc(S(=O)(=O)N4CCCCCC4)cc3)c2C(N)=O)C(C)(C)N1 returned VACV mCherry inh inconclusive and Vaccinia Venus -26.0%.
For CC[C@H]1CN2CCc3cc(OC)c(OC)cc3[C@@H]2C[C@@H]1C[C@H]1NCCc2cc(OC)c(OC)cc21 the results were VACV mCherry inh inconclusive and Vaccinia Venus 0.562µM*.
`O=C(N1CCCCC1)N1CCN(C(c2ccccc2)c2ccccc2)CC1` gave Vaccinia Venus inconclusive.
Screening CCOC(=O)c1cc2sccc2n1CC(=O)N1CCCC1 returned VACV mCherry inh 1.0% and Vaccinia Venus 3.0%.
`O=C(COC(=O)c1ccc2c(c1)OCCO2)Nc1cc(S(=O)(=O)N2CCOCC2)ccc1Cl` gave VACV mCherry inh inactive and Vaccinia Venus -8.1%.
Screening C=CCn1nc([N+](=O)[O-])nc1Sc1cccc2cccnc12 returned VACV mCherry inh 7.94µM* and Vaccinia Venus 8.91µM*.
NC(=O)CC(NC(=O)c1cccc(Br)c1)c1ccc(N2CCC(Br)CC2)c([N+](=O)[O-])c1 (stereo not given) was read as VACV mCherry inh inactive and Vaccinia Venus -15.4%.
`CCOC(=O)c1cnc(SC)nc1N` gave Vaccinia Venus 1.4%.
O=C(NCC(c1ccco1)S(=O)(=O)c1cccs1)c1c(F)cccc1F (stereo not given) was read as VACV mCherry inh -6.5% and Vaccinia Venus -14.2%.
For N#Cc1nc(COc2ccc(F)cc2)oc1NCCCn1ccnc1 the results were VACV mCherry inh -15.7% and Vaccinia Venus -13.7%.
`O=C(COc1ccccc1)NCC(=O)N/N=C/C=C/c1ccccc1` gave VACV mCherry inh -7.7% and Vaccinia Venus 4.1%.
For COc1ccccc1C1(O)C(=O)Nc2ccccc21 (stereo not given) the results were VACV mCherry inh inactive and Vaccinia Venus -11.7%.
Screening OC[C@@H]1CN(Cc2ccc3c(c2)OCO3)C[C@H](n2cnc3c(NCc4ccc(F)cc4)ncnc32)O1 returned VACV mCherry inh -10.0% and Vaccinia Venus -18.8%.
For Cc1ccc(O)c(C2=Nc3ccccc3N=C(c3cccs3)C2)c1 the results were VACV mCherry inh -27.7% and Vaccinia Venus -13.9%.
Screening O=C(NC1CCCc2ccccc21)c1cccc(S(=O)(=O)N2CCOCC2)c1 (stereo not given) returned VACV mCherry inh -18.1% and Vaccinia Venus -24.0%.
For CCOC(=O)Cc1nn(CCc2ccccn2)c(=O)c2ccccc12 the results were Vaccinia Venus -6.9%.
Screening O=C1c2ccccc2C(c2nnnn2Cc2ccccc2)N1Cc1cccnc1 (stereo not given) returned VACV mCherry inh -7.5% and Vaccinia Venus -4.3%.
`CCc1ccc(NC(=O)C2=CC(c3cccs3)=NS(=O)(=O)N2C)cc1` gave VACV mCherry inh inconclusive and Vaccinia Venus -13.1%&-11.8%.
For CC(c1n[nH]c(=S)n1Cc1ccccc1)N(C)C (stereo not given) the results were VACV mCherry inh -0.9% and Vaccinia Venus -0.3%.
`CCOC(=O)N1CCN(c2ccccc2OC)CC1` gave VACV mCherry inh inactive and Vaccinia Venus -2.5%.
`O=C(CCc1nnc(C2CCCCC2)o1)N1CCCCC1CCn1cccn1` (stereo not given) gave VACV mCherry inh -11.2% and Vaccinia Venus 0.6%.
Screening CCc1nnc(NS(=O)(=O)c2ccc(NC(=S)NC(=O)/C=C/c3ccc(OC)cc3)cc2)s1 returned VACV mCherry inh -7.9% and Vaccinia Venus 0.7%.
`Cc1cccc(NC(=O)CN2C(=O)NC(C)(c3ccc4ccccc4c3)C2=O)n1` (stereo not given) gave VACV mCherry inh inactive and Vaccinia Venus -16.0%.
For CCOC(=O)c1c(C)[nH]c(C(=O)OC(C)C(=O)Nc2ccccc2OC)c1C (stereo not given) the results were VACV mCherry inh -12.0% and Vaccinia Venus -20.2%.
`O=C1CC(c2ccccc2)n2nc(N3C(=O)c4ccccc4C3=O)nc2N1` (stereo not given) gave Vaccinia Venus -10.3%.
CCCN(CCC)C(=O)CSc1nc2ccccc2c(=O)n1Cc1ccco1 was read as VACV mCherry inh -15.9% and Vaccinia Venus -9.9%.
For CN(CC(=O)NC1CCCCCC1)S(=O)(=O)c1ccccc1 the results were VACV mCherry inh -19.0% and Vaccinia Venus -9.1%.
For COc1ccc(/C=C2\N=C(c3ccccc3)N(c3ccc(C(=O)O)cc3)C2=O)cc1OC the results were VACV mCherry inh -6.4% and Vaccinia Venus -13.6%.
`CCC1(c2ccccc2)NC(=O)N(CC(=O)NCc2ccncc2)C1=O` (stereo not given) gave VACV mCherry inh -13.0% and Vaccinia Venus -6.9%.
CN(C)c1ccc(/C=C/C=C2/SC(=S)N(c3ccccc3)C2=O)cc1 was read as VACV mCherry inh 442.6%[activator] and Vaccinia Venus inactive.
For COCCCN1C(=O)C(=O)/C(=C(/O)c2ccc(OC(C)C)cc2)C1c1ccc(O)c(OC)c1 (stereo not given) the results were Vaccinia Venus 14.7%.
For COc1cc([C@H]2OC[C@H]3[C@@H]2CO[C@@H]3c2cc(OC)c(O[C@@H]3O[C@H](CO)[C@@H](O)[C@H](O)[C@H]3O)c(OC)c2)cc(OC)c1O[C@H]1O[C@@H](CO)[C@H](O)[C@@H](O)[C@@H]1O the results were VACV mCherry inh inactive and Vaccinia Venus -4.5%.
For Cn1ccc2c(-c3ccc(C(N)=O)cc3)cc3c(c21)C1CCC3O1 (stereo not given) the results were VACV mCherry inh 19.8% and Vaccinia Venus -8.6%.
For COCCNC(=O)C(c1ccc(C)cc1)N(C(=O)CCC(=O)Nc1ccccn1)C1CCCCC1 (stereo not given) the results were VACV mCherry inh inactive and Vaccinia Venus -11.7%.
For CCC(c1nnc(SCC(=O)NC2CCCCC2)n1Cc1ccccc1)N(C)C (stereo not given) the results were VACV mCherry inh inactive and Vaccinia Venus -1.0%.
For C=CCN(CC=C)Cc1cc(=O)oc2ccc3ccccc3c12 the results were VACV mCherry inh -4.2% and Vaccinia Venus -20.6%.
`CC(C)CC(=O)Nc1cccc(NC(=O)CC(C)C)n1` gave VACV mCherry inh -16.9% and Vaccinia Venus -13.2%.
CC(C)Cn1c(-c2ccc(Br)cc2)c[nH]c1=S was read as VACV mCherry inh -15.1% and Vaccinia Venus -20.8%.
Screening COc1ccc2c(c1)C=C(CN1CCN(C3CCCC3)C(CCO)C1)CO2 (stereo not given) returned VACV mCherry inh -17.5% and Vaccinia Venus -10.2%.
`CC1=CC(C)C2(COC(c3ccc[n+](C)c3)OC2)C(C)C1` (stereo not given) gave VACV mCherry inh inactive and Vaccinia Venus -28.0%.
CC(=O)c1cccc(NC(=O)COc2ccccc2C(=O)c2cc(C#N)c(=O)n(C3CCCCC3)c2)c1 was read as VACV mCherry inh inactive and Vaccinia Venus -21.8%.
`CC1(C)O[C@@H]2C[C@H]3[C@@H]4C[C@H](F)C5=CC(=O)CC[C@]5(C)[C@H]4[C@@H](O)C[C@]3(C)[C@]2(C(=O)CO)O1` gave VACV mCherry inh -15.9% and Vaccinia Venus -8.9%.
`CCc1ccc(N2C(=O)Nc3ccccc3C2(O)C(=O)N2CCN(c3ccccn3)CC2)cc1` (stereo not given) gave VACV mCherry inh -4.0% and Vaccinia Venus -10.8%.
For CCOC(=O)c1nnn(-c2nonc2N)c1CN(C)Cc1ccccc1 the results were Vaccinia Venus -4.7%.
For O=C(CO)N/N=C/c1ccc(Cl)cc1 the results were VACV mCherry inh -7.7% and Vaccinia Venus -9.1%.
For O=C(Nc1ccc(N2CCOCC2)c(Cl)c1)c1ccc(Br)o1 the results were VACV mCherry inh -26.4% and Vaccinia Venus -16.8%.
Cc1ccc(CNC(=O)CCNS(=O)(=O)c2ccc3c(c2)CCCC(=O)N3)cc1 was read as VACV mCherry inh -2.4% and Vaccinia Venus -0.7%.
COc1ccc(-n2c(N)c(C(=O)NCc3ccco3)c3nc4ccccc4nc32)c(OC)c1 was read as VACV mCherry inh -24.4%[1.46 µM] and Vaccinia Venus inconclusive.
C#CCOCCOCCOCCNc1nc(N2CCOCC2)nc(N2CCN(C(=O)[C@H](CO)n3cc([C@@H](N)C(C)C)nn3)CC2)n1 was read as VACV mCherry inh -13.4% and Vaccinia Venus -2.2%.
Screening O=C(Nc1ccc(Oc2ccccc2)cc1)C1CC1 returned VACV mCherry inh -6.1% and Vaccinia Venus 3.1%.
CCCCc1nc2ccccc2c(=O)n1-c1ccc(O)cc1 was read as VACV mCherry inh -22.9% and Vaccinia Venus -15.9%.
Screening CC(CNCC1CCCO1)COc1cccc2ccccc12 (stereo not given) returned Vaccinia Venus -2.9%.
C=C(C)COc1ccc(-c2nc(N)nc(C)c2-c2ccc(OC)cc2)c(O)c1 was read as VACV mCherry inh -7.5% and Vaccinia Venus -21.4%.
Screening COc1ccc(S(=O)(=O)N2CCC(c3ccncc3)CC2)cc1OC returned VACV mCherry inh -3.9% and Vaccinia Venus -15.0%.
For Cc1cccc(S(=O)(=O)c2c(C)cc(C)nc2Cl)c1 the results were VACV mCherry inh -3.0% and Vaccinia Venus -7.4%.
`CCCN1CCN(C(=O)Cn2c(-c3cccs3)cc3ccccc32)CC1` gave VACV mCherry inh -9.9% and Vaccinia Venus -11.4%.
Screening COc1ccc(NC(=O)c2ccc3c(c2)CCN3S(C)(=O)=O)cc1 returned VACV mCherry inh -18.8% and Vaccinia Venus -20.2%.
For CN(Cc1ccccc1)c1ncnc2c1nnn2C the results were VACV mCherry inh -15.5% and Vaccinia Venus -4.5%.
`COCCNC(=O)C1(C)CCCN(Cc2ccc(OC)cc2)C1` (stereo not given) gave VACV mCherry inh 9.1% and Vaccinia Venus 9.1%.
`COc1ccc(C2C(C)C(=O)C(C)C(c3ccc(OC)cc3)N2N=O)cc1` (stereo not given) gave VACV mCherry inh inactive and Vaccinia Venus -6.8%.
Screening Cc1c(C(=O)NNC(=S)NCc2ccc(Cl)cc2)oc2ccccc12 returned VACV mCherry inh -1.1% and Vaccinia Venus -15.9%.
COc1ccc(CCN2C(=O)NC(NC(C)=O)(C(F)(F)F)C2=O)cc1OC (stereo not given) was read as VACV mCherry inh inactive and Vaccinia Venus -1.2%.
`COc1ccc(C2NC(=O)C(C#N)=C(S)N2c2cccc(C)c2)cc1OC` (stereo not given) gave VACV mCherry inh -5.2% and Vaccinia Venus 9.9%.

Screening results (PubChem BioAssay)
